Lassa entry inh – blocks Lassa virus binding to or entry into cells. Lassa virus pseudotype entry inhibition, cell reporter; control for the full effect not named in the record. Potency, µM (series often up to 37.9 µM), without a hit: at the highest dose activity change, negative = inhibition, most hits filed as inhibitors. actives 1.2% (n = 300,000). AID 540256; active means well fitted inhibition curve with a large enough effect; inconclusive means small, poorly fitted or top-dose-only effect, or effect the other way; inactive means flat fitted curve, though single readings scatter; tested in HEK293 cells; also: % is scaled to controls: 0 for no effect and ±100 for the full control effect; nearly all actives have a fitted effect of over 50% in size; luciferase read-out
MARV entry inh – inhibitors of Marburg virus binding or cell entry; Marburg virus pseudotyped entry inhibition, cell reporter; control for the full effect not named in the record; about a third of the inactives were read at about 46 µM; actives 1.8% (n = 300,000); Potency, µM (top dose mostly 37.8 µM), without a hit: top-dose activity change, negative = inhibition, actives largely listed as inhibitors; active = well fitted inhibition curve with a large enough effect; inconclusive = small, poorly fitted or top-dose-only effect, or effect the other way; inactive = flat fitted curve, though single readings scatter; tested in HEK293 cells; about a fifth of its hits are not listed in these tables; also: % is scaled to controls: 0 for no effect and ±100 for the full control effect; luciferase read-out
RE007 growth inh – less growth of the S. pombe RE007 Vpr strain. S. pombe RE007 Vpr strain, BacTiter-Glo ATP luminescence, 24 h; control for the full effect not named in the record. Potency, µM (series often up to 92.2 µM), for inactives: top-dose activity change, negative = less growth. actives 0.21% (n = 360,000); active = well fitted falling curve with a large enough effect; inconclusive = small, poorly fitted or top-dose-only effect; inactive = no such curve, though single readings can be large or run the other way;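 also: % is scaled to controls: 0 for no effect and ±100 for the full control effect; nearly all actives have a fitted effect of over 50% in size; the assay follows cell death caused by Vpr and the record does not say whether a fall means rescue or toxicity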
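Fission yeast RE007 carrying one integrated HIV-1 vpr copy, seeded at OD 0.01 in PMG+AL medium with 23 nL pinned compound. Grown 24 h at 30 degrees; viability read by BacTiter-Glo luminescence after 5 min.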
2A StopGo – FMDV 2A StopGo reporter, luciferase signal. AID 1159524. human cells with a luciferase reporter of 2A StopGo recoding; control for the full effect not named in the record. Potency, µM (doses to about 57.9 µM), without a hit: top-dose signal change, negative = less light. actives 1.2% (n = 410,000); active = well fitted falling curve with a large enough effect; inconclusive = small, poorly fitted or top-dose-only effect; inactive = no such curve, though single readings can be large or run the other way; tested in HEK293T cells; also: % is scaled to controls: 0 for no effect and ±100 for the full control effect; nearly all actives have a fitted effect of over 45% in size; luciferase light after 4 h
SARS PLpro yeast – SARS-CoV PLP inhibition in yeast; S. cerevisiae expressing SARS-CoV PLpro, growth rescue; control for the full effect not named in the record; Potency, µM (titrated, usually from 32.9 µM), without a hit: at the top dose activity, positive = growth rescue; actives 0.19% (n = 330,000); AID 485353; also: 0% is about no effect; nearly all actives have a fitted effect of over 55% in size; growth read by luminescence after 48 h
Cruzain inh noDet – cruzain (T. cruzi) inhibition without detergent | P25779 | AID 1476 | actives 2.3% (n = 200,000) | Potency, µM, for the others: max response, negative = inhibition, actives largely listed as inhibitors | purified cruzain, Z-FR-AMC fluorescence, no detergent; active = well fitted curve in the direction sought with a large enough effect; inconclusive = small, poorly fitted or top-dose-only effect, or another doubt; inactive = no such curve, though single readings can be large; an effect the other way counts as inactive or inconclusive;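 also: plate controls were enzyme without inhibitor for no effect and buffer without enzyme for full effect; nearly all actives have a fitted effect of over 40% in size; top concentration of the series not given in the record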
Target sequence (P25779 123-467 limits assumed): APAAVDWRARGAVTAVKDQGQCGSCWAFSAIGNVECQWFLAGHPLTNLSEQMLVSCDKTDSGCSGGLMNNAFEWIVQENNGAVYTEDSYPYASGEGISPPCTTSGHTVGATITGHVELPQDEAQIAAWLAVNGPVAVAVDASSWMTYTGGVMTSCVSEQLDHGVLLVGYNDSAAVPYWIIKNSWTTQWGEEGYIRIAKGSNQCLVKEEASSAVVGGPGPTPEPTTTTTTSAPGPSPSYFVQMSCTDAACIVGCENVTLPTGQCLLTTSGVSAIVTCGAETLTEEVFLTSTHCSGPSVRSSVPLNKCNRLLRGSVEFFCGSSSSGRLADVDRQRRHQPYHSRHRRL
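Purified cruzain at 1.5 nM, pre-incubated 15 min with compound at room temperature in 100 mM sodium acetate pH 5.5, 5 mM DTT, 0.00005% Triton X-100. Reaction started with 2 uM Z-FR-AMC; AMC fluorescence increase over 60 s gives rate.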
Cruzain inh Det – blocks cruzain activity in presence of Triton detergent. P25779. Potency, µM, for the others: max response, negative = inhibition, usual class: inhibitors. purified cruzain, Z-FR-AMC fluorescence, 0.01% Triton. actives 0.43% (n = 200,000); active = well fitted curve in the direction sought with a large enough effect; inconclusive = small, poorly fitted or top-dose-only effect, or another doubt; inactive = no such curve, though single readings can be large; an effect the other way counts as inactive or inconclusive;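 also: plate controls were neutral wells for no effect and buffer without enzyme for full effect; nearly all actives have a fitted effect of over 40% in size; top concentration of the series not given in the record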
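Detergent-containing arm of a paired screen for aggregation-based inhibition: 0.01% Triton X-100 present. Cruzain at 1.5 nM cleaved 2 uM Z-FR-AMC at pH 5.5 with 5 mM DTT; AMC fluorescence gain over 60 s measured activity.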
NS1 inh – blocks influenza NS1 protein function | S. cerevisiae slowed by influenza A NS1, growth recovery by OD600 | Potency, µM (highest dose often 46.1 µM), inactives show at the top dose activity, positive = more growth | actives 0.4% (n = 270,000) | AID 2326; also: actives are rising curves; nearly all actives have a fitted effect of over 50% in size
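Recovery from NS1-induced slow growth read by OD600 in budding yeast switched to galactose assay medium (pH 6.0, -URA) at 1:100 dilution. Compound 23 nl per well; the matching strain lacking NS1 serves as control.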
* marks the source's active call; other numbers are inactive results; ? = inconclusive; . = no result given; & = joins results of further samples; [ ] = another dose, or the depositor's remark. Unless noted, calls follow the shape of the dose curve; as a rule, active means well fitted rising curve with a large enough effect; inconclusive means small, poorly fitted or top-dose-only effect; inactive means no such curve, though single readings can be large or run the other way. Potency is read from the fitted curve at half-maximal effect. Rows are unselected (roughly 4.7% active in at least one column).

| structure | Lassa entry inh | MARV entry inh | RE007 growth inh | 2A StopGo | SARS PLpro yeast | Cruzain inh noDet | Cruzain inh Det | NS1 inh |
| --- | --- | --- | --- | --- | --- | --- | --- | --- |
| COc1cnc(-c2ccccn2)nc1N(C)C | ? | ? | -8% | -10% | -9% | . | . | . |
| CCCCc1noc2c1/C(=N\O)CC(c1ccccc1)C2 (centres undefined) | 2% | ? | -16% | -6% | 3% | ? | -1.0% | 3% |
| CC(C)CNC(=O)c1cccc(NC(=O)CSc2ccc(Cl)cc2)c1 | -4% | -7% | 19% | -9% | 13% | -7% | -3.2% | -3% |
| COc1ccc(S(=O)(=O)N(CC(=O)N(C)Cc2ccccc2)c2ccc(Cl)cc2)cc1 | ? | -13%[46.1 µM] | . | 5% | . | -2% | -6.3% | . |
| CCCCOP(=O)(OCCCC)C(Nc1ccc(C(=O)OCC)cc1)c1ccncc1 (centres undefined) | ? | ? | -9% | -13% | 5% | . | . | -14% |
| Cc1sc(NC(=O)CN2CCOCC2)nc1-c1ccc2c(c1)CCN2S(=O)(=O)c1ccccc1 | ? | 13µM* | 7% | . | -1% | ? | -3.6% | 8% |
| Cc1ccc(NC(=O)c2cccc(OCc3c(C)noc3C)c2)c(C)c1 | ? | ? | 5% | -15% | -14% | -7% | 0.7% | -52% |
| CCOC(=O)C(C)Sc1nnc(NC(=O)c2ccc3c(c2)OCO3)s1 (centres undefined) | -4% | -4% | -12% | -9% | 1% | . | . | . |
| C/C(=N/NC(=O)CNC(=O)c1ccccn1)c1cccc([N+](=O)[O-])c1 | 12% | 17%[46.1 µM] | 11% | 11% | 1% | . | . | 9% |
| O=C(O)C1CCCN1S(=O)(=O)c1cccs1 (centres undefined) | . | . | . | . | 1% | -2% | -1.1% | -2% |
| CCOc1ccc(CNC(=O)Cc2ccc(NC(=O)N3CCSc4ncccc43)cc2)cc1 | -24%[46.1 µM] | . | . | -22% | . | 0% | -8.4% | . |
| O=C(NCc1ccncc1)C1CCN(S(=O)(=O)c2ccccc2)CC1 | -4% | 24% | -20% | -20% | 3% | . | . | . |
| O=S(=O)(/N=C(/Nc1ccccc1)c1ccccc1)c1cccs1 | . | 1% | -2% | 0% | 20% | -9% | -2.2% | -7% |
| N#Cc1nc(Cc2cccc3ccccc23)oc1NCCCN1CCOCC1 | -5% | ? | 6% | -9% | 0% | 8% | 3.4% | -8% |
| COc1cccc(CN(C)C(=O)c2ccc3nccnc3c2)c1 | 1% | -26% | -9% | 2% | -16% | -18% | -0.9% | 3% |
| COc1ccc(C(=O)Nc2ccc(C(=O)Nc3cccnc3)cc2)cc1 | ? | ? | 9% | -23% | -5% | . | . | 4% |
| O=c1cc(-c2ccccc2)n2c(SCc3ccc(F)cc3)nnc2[nH]1 | -9%[46.1 µM] | . | . | 13% | . | -4% | -1.7% | . |
| COc1ccc(S(=O)(=O)Nc2cc(Sc3ncn[nH]3)c(O)cc2C)cc1 | -10%[46.1 µM] | 1%[46.1 µM] | -15% | -5% | -5% | . | . | . |
| Clc1cccc(-c2nn3c(-c4ccncc4)nnc3s2)c1 | . | 1% | . | . | -2% | -12% | 6.8% | 3% |
| Cc1ccc(S(=O)(=O)CC(c2ccccc2)N2CCOCC2)cc1 (centres undefined) | -10% | -6% | 2% | . | . | 7% | 2.7% | -6% |
| O=C(COc1ccccc1)Nc1nnc(C23CC4CC(CC(C4)C2)C3)s1 | 0% | 4% | -15% | 4% | -5% | ? | 2.2% | -2% |
| CC(=O)N1c2ccccc2C(C)(c2ccccc2)CC1(C)C (centres undefined) | 5% | ? | 12% | ? | -36% | 0% | 1.2% | 1% |
| Cc1ccccc1NC(=S)N1CCN(C(=O)c2ccco2)CC1 | ? | ? | 16% | 2% | 1% | . | . | -1% |
| Cc1cc(NC(=O)CSc2nc3c([nH]c4ccccc43)c(=O)n2-c2ccccc2F)no1 | ? | ? | -14% | -12%&-38% | 5% | -18% | -4.5% | -33% |
| O=C(c1ccccc1)c1nccn1-c1ccc(Cl)nn1 | . | . | 1% | 0% | 0% | . | . | 1% |
| COc1ccc(Cl)cc1Nc1nc(-c2sc(NC(=O)c3ccco3)nc2C)cs1 | . | . | -6% | -23% | -2% | 16µM* | -1.1% | 12% |
| CCOC(=O)N1CCN(C(=O)CNC(=O)c2ccc(Cl)cc2)CC1 | 0% | ? | 9% | 1% | 0% | . | . | 9% |
| COc1ccc(-c2ocnc2C(=O)N2CCN(Cc3cccnc3)CC2)cc1 | . | . | -4% | 1% | 1% | . | . | -1% |
| O=C(N/N=C/c1cc(Br)c(O)c(Br)c1)c1cccc(C(F)(F)F)c1 | 0% | 30% | -2% | 8% | -4% | 3% | -22% | -23% |
| O=C(O)c1ccc(/C=N/NC(=O)c2cc3ccccc3cc2O)cc1 | 1% | 1% | -1% | 3% | 9% | . | . | . |
| CCc1ccc(C(=O)NC(CCSC)C(=O)O)cc1 (centres undefined) | 4% | 31% | 21% | -9% | 12% | -3% | -1.1% | 9% |
| CCN(CC)c1ccc(/C=N/NC(=O)c2ccco2)c(O)c1 | . | . | ? | 62%[activator] | -7% | . | . | -81% |
| COc1ccc(C(=O)O)cc1S(=O)(=O)NC1CCN(Cc2ccccc2)CC1 | 20% | -1% | 3% | -11% | -5% | . | . | . |
| O=C(CCN1C(=O)/C(=C\c2cccc(Br)c2)SC1=S)NCCCN1CCOCC1 | 5% | -8%[46.1 µM] | -12% | 2% | -5% | . | . | 6% |
| CCCNC(=O)N1CCN(S(C)(=O)=O)CC1 | 1% | 10%[46.1 µM] | 3% | 14% | 10% | . | . | 4% |
| O=C(O)c1ccc(Cn2ccc3ccccc32)o1 | . | . | -10% | -5% | 2% | . | . | ? |
| Cc1ccc(NC(=O)CN(C)C(=O)COc2cc(F)ccc2[N+](=O)[O-])cc1 | -13% | 8%[14.2 µM] | -11% | -6% | 0% | . | . | . |
| CNC(=O)c1ccsc1NC(=O)c1ccc2c(c1)CCCC2 | ? | ? | -3% | 3% | -68% | -13% | -7.1% | -22% |
| O=C(Nc1ccccn1)c1cc(-n2cnnc2)ccc1Cl | 11% | 9% | 4% | -9% | 2% | 6% | 2.9% | 16% |
| O=C(CSc1ccc2nnc(-c3ccccc3)n2n1)NCc1ccco1 | 7% | 15% | 9% | 2% | 5% | -1% | -5.3% | 3% |

Compound profiles, as listed above.
COc1ccc(-c2ocnc2C(=O)N2CCN(Cc3cccnc3)CC2)cc1 as listed: Lassa entry inh: .; MARV entry inh: .; RE007 growth inh: -4%; 2A StopGo: 1%; SARS PLpro yeast: 1%; Cruzain inh noDet: .; Cruzain inh Det: .; NS1 inh: -1%
O=C(O)c1ccc(/C=N/NC(=O)c2cc3ccccc3cc2O)cc1 as listed: Lassa entry inh: 1%; MARV entry inh: 1%; RE007 growth inh: -1%; 2A StopGo: 3%; SARS PLpro yeast: 9%; Cruzain inh noDet: .; Cruzain inh Det: .; NS1 inh: .

Later entries:
| structure | Lassa entry inh | MARV entry inh | RE007 growth inh | 2A StopGo | SARS PLpro yeast | Cruzain inh noDet | Cruzain inh Det | NS1 inh |
| --- | --- | --- | --- | --- | --- | --- | --- | --- |
| CC(=O)Nc1ccc(SCC(=O)c2cc(C)n(CC(F)(F)F)c2C)cc1 | -6% | ? | 7% | 19% | 13% | 7% | -4.8% | 11% |
| CC(C)(C)NC(=O)CN(CCc1ccccc1)C(=O)c1csnn1 | 11% | ? | 19% | 4% | -1% | . | . | 0% |
| COc1ccc(CCNC(=O)CCS(=O)(=O)c2ccc3c(c2)oc(=O)n3C)cc1OC | ? | 2%&2%[46.1 µM] | 0% | 0%&-4% | 1% | -2% | 0.3% | 4% |
| COc1ccc(-c2cc(C(F)(F)F)n3ncc(C(=O)N(C)Cc4ccccc4)c3n2)cc1 | ? | ? | -6% | ? | -1% | . | . | . |
| C=CCn1c(C)nnc1SCC(=O)N1CCN(S(=O)(=O)c2ccccc2)CC1 | . | . | -2% | -14% | 1% | . | . | -5% |
| CCn1c(CN2CCN(C)CC2)nc2ccccc21 | 8%[46.1 µM] | . | . | -3% | . | -6% | 0.5% | . |
| N#Cc1c(NC(=O)CSc2nnnn2C2CCCC2)sc2c1CCCC2 | 9% | 9% | -2% | . | 1% | 7% | 1.0% | -7% |
| COc1ccc(CCNS(=O)(=O)c2ccccc2[N+](=O)[O-])cc1OC | . | . | 18% | 0% | -10% | . | . | 8% |
| Cc1cc(C)nc(S/C=C/C(=O)c2ccccc2F)n1 | ? | ? | 38% | 8.9µM* | -1% | . | . | -31% |
| O=C(Nc1ccc(Cl)c(Cl)c1)c1ccncc1 | 9% | ? | ? | 22% | -19% | -2% | -3.8% | -85% |
| O=C(O)C1CC=CCC1C(=O)Nc1ccc(S(=O)(=O)N2CCCc3ccccc32)cc1 (centres undefined) | 3.3µM* | 2.1µM* | -7% | -10% | 1% | -1% | -1.8% | ? |

In a second layout: 3 of the compounds above.
COc1ccc(-c2ocnc2C(=O)N2CCN(Cc3cccnc3)CC2)cc1
  Lassa entry inh: . | MARV entry inh: . | RE007 growth inh: -4% | 2A StopGo: 1% | SARS PLpro yeast: 1% | Cruzain inh noDet: . | Cruzain inh Det: . | NS1 inh: -1%

Cc1sc(NC(=O)CN2CCOCC2)nc1-c1ccc2c(c1)CCN2S(=O)(=O)c1ccccc1
  Lassa entry inh: ? | MARV entry inh: 13µM* | RE007 growth inh: 7% | 2A StopGo: . | SARS PLpro yeast: -1% | Cruzain inh noDet: ? | Cruzain inh Det: -3.6% | NS1 inh: 8%

C/C(=N/NC(=O)CNC(=O)c1ccccn1)c1cccc([N+](=O)[O-])c1
  Lassa entry inh: 12% | MARV entry inh: 17%[46.1 µM] | RE007 growth inh: 11% | 2A StopGo: 11% | SARS PLpro yeast: 1% | Cruzain inh noDet: . | Cruzain inh Det: . | NS1 inh: 9%

Assay outcomes: PubChem, National Center for Advancing Translational Sciences (NCATS)
